Assay outcomes deposited in PubChem BioAssay by Broad Institute.
A1 apoptosis 2 = A1 inhibitors via caspase activation, primary screen, cell-based, luminescence, HTS, two replicates | MEF A1-2A-BIM cells, caspase-Glo luminescence, 3 h; percent of clofoctol response, DMSO zero | caspase activation, % (concentration not given with the values) | 24,000 tested, under 10 active | AID 2465, 2010; in the data active means caspase activation above about 5.9%;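 further: wells of about 30 µL received 50 nL stock; the first replicate is given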
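Evaluation: Caspase-3/7 activity from luminescence increase | Assay system: A1-2A-BIM mouse embryonic fibroblasts | Quantity: 2500 MEF cells/well | Medium: RPMI-1640 plus 10% FBS | Detection: Caspase-Glo 3/7 luminescence, 1 h at room temperature | Dosing: 50 nL compound per well, pinned | Timing: Cells settled overnight, compound exposure 3 h at 37 °C, 5% CO2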
The depositor's hits bear a star. These rows are one share of the data; count on the stated rates, not on these rows.

The first 2 records, ahead of the listing:
SMILES | A1 apoptosis 2
C[C@H](CO)N1C[C@H](C)[C@H](CN(C)S(=O)(=O)c2cccs2)Oc2ccc(N(C)C)cc2CC1=O | 1.2
C[C@H]1CN([C@@H](C)CO)C(=O)c2cccc(NC(=O)CCCCCC(=O)Nc3ccccc3N)c2O[C@@H]1CN(C)Cc1ccc(-c2ccccc2)cc1 | 0.6

Main list, from the start:
SMILES | A1 apoptosis 2
C[C@H](CO)N1C[C@H](C)[C@H](CN(C)S(=O)(=O)c2cccs2)Oc2ccc(N(C)C)cc2CC1=O | 1.2
C[C@H]1CN([C@@H](C)CO)C(=O)c2cccc(NC(=O)CCCCCC(=O)Nc3ccccc3N)c2O[C@@H]1CN(C)Cc1ccc(-c2ccccc2)cc1 | 0.6
C[C@@H]1CN([C@H](C)CO)C(=O)Cc2cc(NS(=O)(=O)c3cn(C)cn3)ccc2O[C@H]1CN(C)Cc1ccc2c(c1)OCO2 | -0.4
C[C@H](CO)N1C[C@H](C)[C@H](CN(C)C(=O)Nc2ccc(F)cc2)Oc2ccc(NS(=O)(=O)c3cn(C)cn3)cc2C1=O | 0.3
C[C@@H]1CN([C@H](C)CO)C(=O)CCCn2cc(nn2)CO[C@@H]1CN(C)S(=O)(=O)c1ccccc1 | -0.6
CC(C)NC(=O)Nc1ccc2c(c1)C(=O)N([C@H](C)CO)C[C@@H](C)[C@@H](CN(C)C(=O)C1CCCCC1)OCCCC[C@@H](C)O2 | 0.4
COc1cc(/C=N/NC(=O)CCCCCCC(=O)Nc2ccccc2O)c([N+](=O)[O-])cc1OC | -0.9
C[C@@H]1CN([C@H](C)CO)C(=O)c2cc(NC(=O)CCC(F)(F)F)ccc2O[C@@H]1CN(C)Cc1ccc(Oc2ccccc2)cc1 | -0.1
C[C@H](CO)N1C[C@H](C)[C@H](CN(C)C(=O)Nc2ccc(C(F)(F)F)cc2)OCc2cnnn2CCCC1=O | 0.3
Cc1noc(C)c1S(=O)(=O)Nc1ccc2c(c1)C(=O)N([C@@H](C)CO)C[C@H](C)[C@@H](CN(C)S(=O)(=O)c1c(C)noc1C)OCCCC[C@H](C)O2 | -1.1
C[C@H]1CN([C@@H](C)CO)C(=O)c2cccc(NS(=O)(=O)c3ccccc3)c2O[C@H]1CN(C)CC1CCCCC1 | 1.1
C=CCSC1=N[C@@]2(COCc3ccc(OC)cc3)Oc3ccccc3[C@H]([C@H]2CO[Si](C)(C)C(C)(C)C)N1C(=O)c1ccccc1 | 0.6
CC(C)NC(=O)N(C)C[C@H]1OCCCC[C@@H](C)Oc2ccc(N(C)C)cc2C(=O)N([C@@H](C)CO)C[C@H]1C | 0.3
C[C@H]1CN([C@@H](C)CO)C(=O)c2cccc(NC(=O)CCCCCC(=O)Nc3ccccc3N)c2O[C@H]1CN(C)CC1CC1 | 0.3
CC(C)NC(=O)N(C)C[C@@H]1OCCCC[C@H](C)Oc2ccc(NS(C)(=O)=O)cc2C(=O)N([C@@H](C)CO)C[C@H]1C | -0.1
COc1ccc(S(=O)(=O)Nc2cccc3c2O[C@H](CN(C)S(=O)(=O)c2ccc(F)cc2)[C@H](C)CN([C@H](C)CO)C3=O)cc1 | -1.3
Cc1noc(C)c1NC(=O)N(C)C[C@H]1Oc2ccc(NC(=O)NC(C)C)cc2CC(=O)N([C@H](C)CO)C[C@H]1C | 0.7
C[C@H]1CN([C@@H](C)CO)C(=O)c2cccc(NC(=O)c3nc4ccccc4s3)c2O[C@@H]1CN(C)Cc1ccc(Cl)c(Cl)c1 | -0.4
C[C@H]1CCCCO[C@H](CN(C)C(=O)Nc2ccc3c(c2)OCO3)[C@@H](C)CN([C@@H](C)CO)C(=O)c2cc(NS(=O)(=O)c3ccc(F)cc3)ccc2O1 | -0.2
CCCN(C)C[C@@H]1OCCCC[C@H](C)Oc2ccc(NS(=O)(=O)c3ccc(C)cc3)cc2C(=O)N([C@H](C)CO)C[C@@H]1C | -0.3
C[C@H](CO)N1C[C@H](C)[C@H](CN(C)CC2CCCCC2)Oc2ccc(NC(=O)Nc3ccc(F)cc3)cc2CC1=O | 0.3
C[C@H]1CN([C@@H](C)CO)C(=O)c2cc(N(C)C)ccc2O[C@H]1CN(C)S(=O)(=O)c1cccs1 | 1.1
C[C@@H]1CN([C@@H](C)CO)C(=O)c2cc(N(C)C)ccc2O[C@@H]1CN(C)S(=O)(=O)c1cn(C)cn1 | -0.3
C[C@@H]1CCCCO[C@@H](CN(C)C)[C@H](C)CN([C@H](C)CO)C(=O)c2cc(NC(=O)CCC(F)(F)F)ccc2O1 | -0.5
COc1ccc(NC(=O)N(C)C[C@@H]2Oc3c(NS(=O)(=O)c4ccccc4)cccc3C(=O)N([C@H](C)CO)C[C@H]2C)cc1 | 0.4

The final two compounds of the section above lead into the next.
SMILES | A1 apoptosis 2
C[C@@H]1CCCCO[C@@H](CN(C)C)[C@H](C)CN([C@H](C)CO)C(=O)c2cc(NC(=O)CCC(F)(F)F)ccc2O1 | -0.5
COc1ccc(NC(=O)N(C)C[C@@H]2Oc3c(NS(=O)(=O)c4ccccc4)cccc3C(=O)N([C@H](C)CO)C[C@H]2C)cc1 | 0.4
C[C@H]1CCCCO[C@@H](CN(C)C(=O)Nc2ccc3c(c2)OCO3)[C@@H](C)CN([C@@H](C)CO)C(=O)c2cc(NC(=O)c3ccncc3)ccc2O1 | 1.1
C[C@@H]1CCCCO[C@@H](CN(C)Cc2ccc(C(=O)O)cc2)[C@H](C)CN([C@H](C)CO)C(=O)c2cc(NS(=O)(=O)c3ccc(Cl)cc3)ccc2O1 | -0.8
C[C@H]1CN([C@@H](C)CO)C(=O)Cc2cc(NS(C)(=O)=O)ccc2O[C@@H]1CN(C)C(=O)Nc1ccc(F)cc1 | 0.3
CC(C)NC(=O)Nc1ccc2c(c1)C(=O)N([C@@H](C)CO)C[C@@H](C)[C@H](CN(C)C(=O)Nc1ccc3c(c1)OCO3)O2 | -0.4
COc1ccc(NC(=O)N(C)C[C@@H]2Oc3ccc(NC(=O)Nc4ccc5c(c4)OCO5)cc3C(=O)N([C@@H](C)CO)C[C@@H]2C)cc1 | -0.7
C[C@H]1CN([C@@H](C)CO)C(=O)Cc2cc(NC(=O)Cc3cn(C)c4ccccc34)ccc2O[C@H]1CN(C)Cc1ccc(Cl)c(Cl)c1 | 0.3
COc1ccc(CN(C)C[C@@H]2Oc3ccc(NC(=O)Nc4ccccc4)cc3CC(=O)N([C@H](C)CO)C[C@@H]2C)cc1 | 1.3
C[C@@H]1CN([C@@H](C)CO)C(=O)c2cc(NC(=O)Nc3ccc4c(c3)OCO4)ccc2O[C@@H]1CN(C)Cc1ccc(Cl)c(Cl)c1 | -1.6
C[C@H](CO)N1C[C@H](C)[C@H](CN(C)C(=O)Nc2cccc3ccccc23)OCCCC[C@H](C)Oc2ccc(NS(=O)(=O)c3ccc(F)cc3)cc2C1=O | -0.2
C[C@H](CO)N1C[C@H](C)[C@H](CN(C)Cc2ccc(-c3ccccc3)cc2)Oc2c(NC(=O)Nc3cccc4ccccc34)cccc2C1=O | 0.2
C[C@H](CO)N1C[C@H](C)[C@H](CN(C)C(=O)Nc2ccc(C(F)(F)F)cc2)Oc2ccc(NC(=O)Nc3cccc4ccccc34)cc2CC1=O | 0.2
C[C@@H]1CN([C@@H](C)CO)C(=O)c2cc(NS(=O)(=O)c3ccccc3)ccc2O[C@H]1CN(C)Cc1ccc2c(c1)OCO2 | 0.9
C[C@@H]1CN([C@H](C)CO)C(=O)c2cc(NC(=O)CCCN(C)C)ccc2O[C@@H]1CN(C)S(C)(=O)=O | -1.4
C[C@@H]1CN([C@@H](C)CO)C(=O)c2cccc(NC(=O)c3ccncc3)c2O[C@@H]1CN(C)S(=O)(=O)c1ccc(F)cc1 | 0.3
C[C@@H]1CCCCO[C@H](CN(C)Cc2ccc(C(=O)O)cc2)[C@H](C)CN([C@@H](C)CO)C(=O)c2cc(NC(=O)C3CCCCC3)ccc2O1 | 1.6
CNC[C@H]1OCCCC[C@@H](C)Oc2ccc(NS(=O)(=O)c3ccccc3)cc2C(=O)N([C@H](C)CO)C[C@@H]1C | 0.4
C[C@@H]1CN([C@@H](C)CO)C(=O)c2cc(NC(=O)Cn3cnnn3)ccc2O[C@H]1CN(C)C(=O)NC1CCCCC1 | 0.1
COc1ccc(S(=O)(=O)Nc2ccc3c(c2)CC(=O)N([C@H](C)CO)C[C@H](C)[C@@H](CN(C)C(=O)Nc2ccc(C(F)(F)F)cc2)O3)cc1 | -0.5
O=C(NO)c1ccc(C(=O)N/N=C/c2cc(F)ccc2O)cc1 | -0.3
Cc1noc(C)c1S(=O)(=O)Nc1ccc2c(c1)CC(=O)N([C@@H](C)CO)C[C@@H](C)[C@@H](CN(C)C(=O)Nc1ccc(F)cc1)O2 | -0.5
C[C@@H]1CN([C@@H](C)CO)C(=O)Cc2cc(NS(=O)(=O)c3cccs3)ccc2O[C@@H]1CN(C)Cc1ccc(C(F)(F)F)cc1 | -1.8
C[C@H]1CN([C@@H](C)CO)C(=O)CCCn2cc(nn2)CO[C@@H]1CN(C)Cc1ccccc1 | 0.0
C[C@H]1CN([C@@H](C)CO)C(=O)c2cc(NC(=O)Nc3ccc4c(c3)OCO4)ccc2O[C@H]1CN(C)Cc1ccc(C(=O)O)cc1 | -0.6
COc1ccc(NC(=O)N(C)C[C@@H]2Oc3ccc(NC(=O)CCCCCC(=O)Nc4ccccc4N)cc3C(=O)N([C@@H](C)CO)C[C@@H]2C)cc1 | 1.4
C[C@@H]1CN([C@@H](C)CO)C(=O)Cc2cc(NC(=O)CCN3CCOCC3)ccc2O[C@H]1CN(C)S(=O)(=O)c1cn(C)cn1 | -0.1
SMILES | A1 apoptosis 2
O=C(O)CCCCCC(=O)N/N=C/C1CCCCC1 | 0.7
O=C1O[C@H](c2ccccc2)[C@H](c2ccccc2)N2[C@H]1[C@@H](C(=O)O)[C@]1(C(=O)Nc3ccccc31)[C@H]2c1ccc(OCCO)cc1 | -0.4
C[C@@H]1CCCCO[C@H](CN(C)C)[C@H](C)CN([C@@H](C)CO)C(=O)c2cc(NC(=O)Nc3cccc4ccccc34)ccc2O1 | 0.2
C[C@H](CO)N1C[C@H](C)[C@H](CN(C)Cc2ccc(Oc3ccccc3)cc2)Oc2ccc(NS(=O)(=O)c3ccc(Cl)cc3)cc2CC1=O | -0.8
C[C@H](CO)N1C[C@H](C)[C@H](CN(C)Cc2ccc(Cl)c(Cl)c2)Oc2ccc(NC(=O)Nc3ccc(F)cc3)cc2C1=O | -0.5
C[C@@H]1CN([C@H](C)CO)C(=O)CCCn2nncc2CO[C@H]1CN(C)C(=O)c1ccncc1 | 0.3
C[C@H]1CCCCO[C@@H](CN(C)C(=O)C2CCCCC2)[C@@H](C)CN([C@@H](C)CO)C(=O)c2cc(N(C)C)ccc2O1 | -1.1
Cc1ccc(S(=O)(=O)Nc2ccc3c(c2)CC(=O)N([C@H](C)CO)C[C@@H](C)[C@H](CN(C)Cc2ccc(-c4ccccc4)cc2)O3)cc1 | 0.5
C[C@H]1CN([C@@H](C)CO)C(=O)c2cccc(NS(=O)(=O)c3ccc(Cl)cc3)c2O[C@H]1CN(C)C(=O)Nc1ccc(F)cc1 | 2.8
C[C@H]1CN([C@@H](C)CO)C(=O)c2cc(NC(=O)CCCN(C)C)ccc2O[C@@H]1CN(C)S(=O)(=O)c1cccs1 | 0.0
C[C@@H]1CN([C@H](C)CO)C(=O)c2cc(NS(=O)(=O)c3cn(C)cn3)ccc2O[C@@H]1CN(C)C | 0.2
C[C@@H]1CN([C@H](C)CO)C(=O)CCCn2nncc2CO[C@H]1CN(C)Cc1ccc2c(c1)OCO2 | 0.2
Cc1noc(C)c1S(=O)(=O)N(C)C[C@H]1Oc2ccc(NC(=O)NC(C)C)cc2CC(=O)N([C@@H](C)CO)C[C@@H]1C | -1.1
COc1ccc(NC(=O)Nc2cccc3c2O[C@@H](CN(C)S(=O)(=O)c2cn(C)cn2)[C@H](C)CN([C@@H](C)CO)C3=O)cc1 | 0.8
C[C@@H]1CCCCO[C@@H](CN(C)Cc2ccc(C(=O)O)cc2)[C@H](C)CN([C@@H](C)CO)C(=O)c2cc(NC(=O)Nc3ccccc3)ccc2O1 | 0.8
C[C@@H]1CN([C@@H](C)CO)C(=O)CCCn2cc(nn2)CO[C@H]1CN(C)C(=O)Nc1ccc(C(C)(C)C)cc1 | 0.4
COc1ccc(S(=O)(=O)Nc2ccc3c(c2)C(=O)N([C@H](C)CO)C[C@@H](C)[C@H](CN(C)C(=O)NC2CCCCC2)O3)cc1 | -0.3
C[C@H](CO)N1C[C@H](C)[C@H](CN(C)C(=O)NC2CCCC2)OCc2cnnn2CCCC1=O | -0.2
CNC[C@@H]1Oc2c(NS(=O)(=O)c3ccccc3)cccc2C(=O)N([C@H](C)CO)C[C@@H]1C | -0.3
C[C@H]1CN([C@@H](C)CO)C(=O)c2cccc(NS(=O)(=O)c3cn(C)cn3)c2O[C@H]1CN(C)C(=O)NC1CCCCC1 | 0.2
C[C@H](CO)N1C[C@H](C)[C@H](CN(C)CC2CCCCC2)Oc2c(NC(=O)Nc3cccc4ccccc34)cccc2C1=O | 0.1
C[C@@H]1CN([C@@H](C)CO)C(=O)c2cccc(NC(=O)C3CCOCC3)c2O[C@@H]1CN(C)Cc1ccc(C(F)(F)F)cc1 | -0.6

Part of the list above, reformatted.
| SMILES | A1 apoptosis 2 |
| --- | --- |
| O=C1O[C@H](c2ccccc2)[C@H](c2ccccc2)N2[C@H]1[C@@H](C(=O)O)[C@]1(C(=O)Nc3ccccc31)[C@H]2c1ccc(OCCO)cc1 | -0.4 |
| COc1ccc(NC(=O)Nc2cccc3c2O[C@@H](CN(C)S(=O)(=O)c2cn(C)cn2)[C@H](C)CN([C@@H](C)CO)C3=O)cc1 | 0.8 |

Reprinted at random: two entries already listed, in no set order.
SMILES | A1 apoptosis 2
C[C@@H]1CCCCO[C@@H](CN(C)Cc2ccc(C(=O)O)cc2)[C@H](C)CN([C@@H](C)CO)C(=O)c2cc(NC(=O)Nc3ccccc3)ccc2O1 | 0.8
C[C@H](CO)N1C[C@H](C)[C@H](CN(C)C(=O)NC2CCCC2)OCc2cnnn2CCCC1=O | -0.2
